PrP 5UTR inh: inhibition of PrP 5' UTR reporter expression; inhibition, % (concentration not given with the values); cell-based PrP 5' UTR mRNA reporter, plate reader; 340,000 tested, 0.35% active; AID 488862;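 active means every replicate at 50% or more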;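 further: 0 = median of the neutral control wells; tested in H4 reporter cells; numbers are from one replicate; inactives centre near -14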
Sa RN4220 lethal: kills Staphylococcus aureus RN4220; S. aureus RN4220 growth, OD600, 16 h; 330,000 tested, 0.33% active; inhibition, % (no concentration beside the values);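 active means z-score of -3 or lower and OD600 up to 0.18 on both plates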;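 further: plate controls were untreated cells for no effect and reference antibiotic for full effect; stock transfer was 100 nL into about 80 µL; one replicate is shown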
BJeLR viability: kills HRASV12-expressing BJeLR cells. 300,000 tested, 0.17% active. BJeLR (HRASV12) viability, CellTiter-Glo ATP luminescence, 48 h; reference of the scale not given here. AID 1554. inhibition, % (test concentration not listed);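 active means replicate mean above 50%; inconclusive means above 50% but judged a plate artefact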;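 further: 50 nL library stock added to about 25 µL; numbers are from one replicate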
ugtP null kill: kills S. aureus RN4220 lacking UgtP; S. aureus RN4220 ugtP deletion, OD600 growth, 16 h; some inactives read as strong as hits; growth inhibition, % (concentration not given with the values); 330,000 tested, 0.54% active; AID 1259309;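 active means z-score under -3 and OD600 up to 0.15 on both plates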;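 further: plate controls were untreated wells for no effect and antibiotic for full effect; wells of about 80 µL received 100 nL stock; the first replicate is given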
Mtb hypoxia rep: Mtb hypoxia fluorescent reporter inhibition. fluorescence inhibition, % (test concentration not listed). AID 1159583. 300,000 tested, 0.1% active. M. tuberculosis hypoxia-regulated fluorescent reporter, fluorescence;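 active means 35 to 45% if threefold the growth effect, above 45% if 1.5-fold the growth effect; inactive means the rest, general growth blockers included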;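 further: wells of about 50 µL received 100 nL stock; 0% = vehicle wells and 100% = reference inhibitor wells; whole bacteria with a GFP reporter of the hypoxia response; strong numbers were not always called active; many hits fall short of the cut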
Autofluor counter: counter-screen for toxin protease inhibitors: compound fluorescence. fluorescence intensity (test concentration not listed). AID 624483. compound autofluorescence counterscreen, microsphere flow cytometry; hits give high values. 360,000 tested, 3.1% active;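 active means at least 3 SD above the mean of all compounds, about 16000 in these data; inconclusive means too few beads counted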;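 further: 100 nL of 1 mM stock went into each well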
Mtb hypoxia rep growth: further read-out of Mtb hypoxia rep, marked with its call; growth inhibition, %; measured here: M. tuberculosis growth (absorbance);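 0% = vehicle and 100% = reference antibiotic; read after six days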
Numbers without * were called inactive; ? = inconclusive; / = no result given.

Field names – A = PrP 5UTR inh; B = Sa RN4220 lethal; C = BJeLR viability; D = ugtP null kill; E = Mtb hypoxia rep; F = Mtb hypoxia rep growth; G = Autofluor counter
COc1ccc(C2(CCN=Cc3ccc(N(C)C)cc3)CCOC(C)(C)C2)cc1 (stereo not given)
  A: -12	B: 2.6	C: 4	D: 2	E: 11	F: 11	G: 4785
COc1ccc(C2C(C(C)=O)=C(O)C(=O)N2CCCn2ccnc2)cc1 (stereo not given)
  A: -18	B: 2.3	C: 2	D: 7	E: 5	F: 4	G: 7978
O=C(Cc1cccs1)Nc1nc(-c2ccc(F)cc2F)cs1
  A: -12	B: -17	C: 15	D: 66	E: 8	F: 6	G: 17771*
Cc1cccc(-n2ncc3c2CCCC3NC(=O)CCN2Cc3ccccc3C2=O)c1C (stereo not given)
  A: 3	B: 0.9	C: 6	D: -1	E: 7	F: 20	G: 5559
CCCCOc1ccc(S(=O)(=O)N2CCN(c3ccc(N4CCN(CC)CC4)nn3)CC2)cc1
  A: -16	B: -3.6	C: -8	D: -2	E: -2	F: -9	G: 6914
COc1ccc(S(=O)(=O)NCC2CCCN(Cc3cccnc3)C2)cc1 (stereo not given)
  A: -26	B: -1.7	C: 7	D: -13	E: -3	F: -1	G: 3579
CCc1ccc(NCc2nc3ccccc3c(=O)[nH]2)cc1
  A: -67	B: 0.4	C: -6	D: 2	E: 5	F: 0	G: 3161
N#Cc1nc(-c2ccccc2F)oc1NCc1ccccc1
  A: 18	B: 2.0	C: 0	D: 2	E: 4	F: 2	G: 5810
CCCN(CC(=O)Nc1ccccc1C)C(=O)C1CC(=O)N(c2ccccc2OCC)C1 (stereo not given)
  A: -14	B: 3.5	C: /	D: 4	E: -10	F: 4	G: 7369
CCOC(=O)c1c(NC(=O)CN(CC)CC)sc2c1CCN(C(=O)OCC)C2
  A: -20	B: -0.6	C: -2	D: 6	E: 12	F: 6	G: 11852
COc1c(C)cc(C(=O)C2CCCN(C(=O)c3cccc(F)c3)C2)cc1C (stereo not given)
  A: -9	B: 0.4	C: -2	D: 4	E: 11	F: -4	G: 4227
CCc1nnc(NC(=O)CCC(=O)N2CCN(Cc3ccc(Cl)cc3)CC2)s1
  A: -16	B: 1.6	C: 5	D: 10	E: 0	F: 9	G: 2367
O=[N+]([O-])c1cccc(-n2nnnc2CNCc2ccccc2)c1
  A: -13	B: 1.9	C: -9	D: -1	E: 4	F: -2	G: 3329
N#C/C(=N/O)c1nc(-c2ccc(F)cc2)cs1
  A: -3	B: /	C: 1	D: /	E: /	F: /	G: 2684
COC(=O)c1cccc(N(C(=O)c2cnccn2)C(C(=O)NC2CCCCC2)c2cn(C)nc2C)c1 (stereo not given)
  A: -8	B: -3.6	C: 4	D: -7	E: -13	F: 6	G: 10041

Complete entries, quoted from the list. Order of screens: PrP 5UTR inh, Sa RN4220 lethal, BJeLR viability, ugtP null kill, Mtb hypoxia rep, Mtb hypoxia rep growth, Autofluor counter
Record of `CCOC(=O)c1c(NC(=O)CN(CC)CC)sc2c1CCN(C(=O)OCC)C2` = -20, -0.6, -2, 6, 12, 6, 11852
Record of `N#C/C(=N/O)c1nc(-c2ccc(F)cc2)cs1` = -3, /, 1, /, /, /, 2684
Record of `N#Cc1nc(-c2ccccc2F)oc1NCc1ccccc1` = 18, 2.0, 0, 2, 4, 2, 5810
Record of `CCCN(CC(=O)Nc1ccccc1C)C(=O)C1CC(=O)N(c2ccccc2OCC)C1` (stereo not given) = -14, 3.5, /, 4, -10, 4, 7369

Following part.
Field names – A = PrP 5UTR inh; B = Sa RN4220 lethal; C = BJeLR viability; D = ugtP null kill; E = Mtb hypoxia rep; F = Mtb hypoxia rep growth; G = Autofluor counter
Cc1cc(NC(=O)c2noc3c2CCCCC3)no1
  A: -50	B: 0.2	C: -1	D: 4	E: 3	F: -4	G: 9941
CCOC(=O)C(NS(=O)(=O)c1ccc(Br)cc1)C(C)C (stereo not given)
  A: -56	B: 2.2	C: 4	D: -1	E: 5	F: 5	G: 9960
COc1ccc(CCNC(=O)C2CC(c3cc(C(F)(F)F)cc(C(F)(F)F)c3)=NO2)cc1 (stereo not given)
  A: -25	B: 9.3	C: -8	D: 9	E: 3	F: 10	G: 3489
CCN(C(=O)COC(=O)c1cc(Cl)ccc1OC)c1c(N)n(Cc2ccccc2)c(=O)[nH]c1=O
  A: -8	B: 1.4	C: /	D: 1	E: -7	F: 3	G: 3733
Cc1ccccc1Oc1nc(-c2ccccn2)nc2ccccc12
  A: -43	B: 7.5	C: 12	D: 9	E: 11	F: 17	G: 3698
O=[N+]([O-])c1cccnc1S(=O)(=O)c1ccccc1
  A: -15	B: /	C: -1	D: /	E: /	F: /	G: 3592
FC(F)(F)c1ccc(N2CCN(c3ncnc4c3nnn4Cc3ccccc3Cl)CC2)cc1
  A: -17	B: -12	C: 7	D: -3	E: 14	F: 7	G: 3400
O=C(CCc1nnc(COc2ccccc2)o1)NCc1ccc(Cl)s1
  A: 3	B: 5.6	C: -2	D: 3	E: 14	F: 6	G: 3651
COc1ccc(CCNC(=O)COC(=O)/C=C/c2cc(OC)ccc2OC)cc1
  A: -19	B: 0.0	C: /	D: 4	E: -4	F: 3	G: 8722
CC(C)Cc1nnc(NC(=O)CCC(=O)N2CCN(S(=O)(=O)c3ccccc3)CC2)s1
  A: -17	B: 5.3	C: -6	D: 6	E: -7	F: -3	G: 2421
NC(=O)c1cccn1Cc1cccc(Cl)c1
  A: -6	B: 0.4	C: 18	D: -3	E: -3	F: 2	G: 10318
CCc1ccc(N(C(=O)c2ccoc2C)C(C(=O)NC2CCCC2)c2ccc(OC)cc2)cc1 (stereo not given)
  A: -51	B: -3.5	C: -1	D: -6	E: 9	F: -2	G: 5698
O=C(N/N=C/c1ccccc1OC(=O)c1ccc2c(c1)OCO2)c1cccc(F)c1
  A: -3	B: /	C: -4	D: /	E: /	F: /	G: 2612
CCN1N=C(c2cc(Cl)sc2Cl)CSC1=O
  A: 1	B: 4.8	C: -7	D: -2	E: -3	F: 3	G: 3934
CCOc1ccc(C(=O)NC(C(=O)NCc2ccccc2OC)C(C)C)cc1 (stereo not given)
  A: 0	B: 1.6	C: -3	D: 1	E: 1	F: 9	G: 4433
CCOc1ccc(/C=C2\NC(=S)NC2=O)cc1
  A: -5	B: -6.4	C: 4	D: 7	E: 7	F: -1	G: 4284
N=C1/C(=C/c2cccn2Cc2ccc(Cl)cc2)C(=O)N=C2SC=CN12
  A: -19	B: 1.9	C: -10	D: -10	E: 4	F: 2	G: 2023
CCC[N+](C)(C)C(C)C(OC(C)=O)c1ccccc1 (stereo not given)
  A: -7	B: /	C: 0	D: /	E: /	F: /	G: 3888
C=C(C)C1CC=C(C)C(=NNC(=O)CNc2cccc3ccccc23)C1 (stereo not given)
  A: /	B: 3.5	C: /	D: -6	E: -8	F: -2	G: /
C=CCNC(=O)c1ccc(C2SCC(=O)N2Cc2ccccc2)cc1 (stereo not given)
  A: -24	B: 1.2	C: 5	D: -7	E: -12	F: 5	G: 4506
O=C(C[C@H]1C[C@H](C(=O)N2CCOCC2)[C@@]2(CCC3CCCC3)c3[nH]c4cc(-c5ccco5)ccc4c3CCN2C1=O)NCCc1ccccn1
  A: -12	B: 2.4	C: /	D: -15	E: -3	F: 7	G: 3197
COc1cc2c(cc1OC)C(c1ccc([N+](=O)[O-])cc1)NCC2 (stereo not given)
  A: -20	B: 3.7	C: 2	D: 3	E: -10	F: -8	G: 3808
O=C(CSc1nc(-c2ccc(F)cc2)cc(C(F)(F)F)n1)NCCN1CCOCC1
  A: -23	B: -8.7	C: 10	D: -6	E: 17	F: 16	G: 2920
CC(C)C[C@@]12C(=O)N(c3cccc(F)c3)C(=O)N1C(c1ccc(Cl)cc1)C1C(=O)N(C3CCCCC3)C(=O)C12 (stereo not given in full)
  A: /	B: -4.2	C: /	D: -3	E: -1	F: 9	G: /
O=C(Nc1ccc(Cl)cn1)Nc1cccs1
  A: -36	B: 4.9	C: -10	D: -9	E: 13	F: 6	G: 2387
CC[C@@H]1C=C(C(=O)O)[C@H](c2cccc(C)c2)N1S(=O)(=O)c1ccc(C)cc1
  A: -1	B: 11	C: /	D: 21	E: -6	F: 1	G: 3083
CCc1nnc(N/N=C/c2ccc(O)c(OC)c2)n1N
  A: -5	B: /	C: -3	D: /	E: /	F: /	G: 4307
COc1ccc(CCNC(=O)C(NS(=O)(=O)c2cccc3nsnc23)C(C)C)cc1OC (stereo not given)
  A: -27	B: -0.9	C: 0	D: 2	E: 9	F: 10	G: 5621
COc1ccc(C(C(=O)NC2CCCCC2)N(Cc2ccco2)C(=O)CNC(=O)c2ccco2)cc1 (stereo not given)
  A: -8	B: -1.7	C: -6	D: 0	E: /	F: /	G: 4167
O=C1COc2ccc(C(=O)c3ccccc3C(=O)NCc3ccccc3)cc2N1
  A: -29	B: 1.6	C: 2	D: -6	E: /	F: /	G: 4081
CC1(C)CCC(=O)N2CC[C@H]3C[C@H](OC(=O)Nc4ccccc4)C[C@@H]1[C@H]32
  A: -26	B: -11	C: 8	D: -9	E: 9	F: 7	G: 3988
O=C(c1ccc(Cl)cc1)C1CCCN(Cc2ccc3c(c2)OCCO3)C1 (stereo not given)
  A: -42	B: 5.8	C: -7	D: 18	E: -3	F: -2	G: 3096
CC(C)c1nn(-c2cc(C(F)(F)F)ccn2)c(=O)o1
  A: -13	B: 2.0	C: 3	D: 9	E: 6	F: 4	G: /
CCCOc1ccc2c(C)c(CC(=O)OC)c(=O)oc2c1
  A: -43	B: 5.4	C: 4	D: -3	E: /	F: /	G: 2861
O=C(CSc1nc(C(F)(F)F)cc(=O)[nH]1)Nc1nccs1
  A: -20	B: -1.7	C: 0	D: -4	E: -2	F: -1	G: ?
O=C(CCCc1nc(-c2ccccc2)no1)N1CCOCC1
  A: -15	B: 4.8	C: 1	D: 7	E: -86	F: -10	G: 9944
Cc1ccccc1-c1n[nH]c(=S)n1/N=C/c1ccc(-c2ccccc2Br)o1
  A: -18	B: /	C: 18	D: /	E: /	F: /	G: 4211
COc1ccc(SCC(Cc2ccccc2)N2CCN(CCc3ccccc3)CCC2=O)cc1 (stereo not given)
  A: /	B: 6.1	C: /	D: -8	E: -11	F: 2	G: /
CN1c2ccccc2C(C)(C)C12CCCC(=O)N2 (stereo not given)
  A: -18	B: /	C: 6	D: /	E: /	F: /	G: 2449
CC(=O)Nc1ccc(C(=O)OCC(=O)N(Cc2ccccc2)C(C)(C)C)cc1
  A: -13	B: 4.7	C: -8	D: 2	E: 16	F: 12	G: 11579
Cc1ccc(NC(=O)NCc2c(C)nn(C)c2C)cc1Cl
  A: -68	B: 8.8	C: -2	D: -1	E: 6	F: -2	G: 3153
O=C(NN=Cc1ccc([N+](=O)[O-])cc1)c1ccncc1
  A: -11	B: -1.0	C: /	D: 6	E: 11	F: 22	G: 3730
O=C(CSc1nnc(COc2ccc(F)cc2)o1)N1CCCCC1
  A: -1	B: 6.2	C: 1	D: 15	E: 14	F: 10	G: 4645
NNC(=O)c1sc(-c2ccccc2)cc1N
  A: -16	B: 3.1	C: 9	D: 7	E: 15	F: 4	G: 3200
Cc1cccc(NC(=O)C[n+]2ccccc2)c1
  A: -27	B: 8.1	C: -4	D: 11	E: 14	F: -5	G: 4839
CCN(CC)CCN(C(=O)c1ccc(C(=O)c2ccccc2)cc1)c1nc2ccc(OC)cc2s1
  A: -8	B: 0.7	C: -3	D: 4	E: -5	F: -3	G: 6857
Cc1ccc(-c2nc3ccc(Cl)cc3n2OC(=O)N(C)C)cc1
  A: -65	B: 0.5	C: 1	D: 4	E: 2	F: 3	G: 2537
C[C@H]1CCC[C@@]2(O[C@H](CCO)C[C@@H](O)[C@@H]2O)O1
  A: -5	B: /	C: -5	D: /	E: /	F: /	G: 2878
CCn1c(SC(C)C)nnc1-c1cc(-c2ccccc2)sc1N
  A: -23	B: -1.1	C: -1	D: -26	E: 3	F: 7	G: 9788
O=C(c1ccc(=O)[nH]c1)N1CCN(S(=O)(=O)c2ccccc2)CC1
  A: -16	B: 1.0	C: 6	D: 1	E: 4	F: 2	G: 5086
CCCCOC(=O)Nc1ccc(C(N)=O)cc1
  A: -44	B: -0.4	C: -4	D: 8	E: /	F: /	G: 4723
COC(=O)c1sc(-c2ccccc2)cc1NC(=O)c1ccc(OC)cc1
  A: 8	B: -6.1	C: 16	D: -10	E: 10	F: 3	G: 2427

Screening results (PubChem)
